HSD17B inh = qHTS Assay for Inhibitors of HSD17B4, hydroxysteroid (17-beta) dehydrogenase 4; 3-hydroxyacyl-CoA dehydrogenase type-2 (Homo sapiens), Q99714; AID 893, 2007; recombinant HSD17B10, NADH fluorescence kinetic; many of its hits are not listed in these tables; Potency, µM (titrated, usually from 57.1 µM), for the others: at the highest dose activity change, negative = inhibition, most hits filed as inhibitors; 7.6% of 75,000 active; active = well fitted inhibition curve with a large enough effect; inconclusive = small, poorly fitted or top-dose-only effect; inactive = no such curve, though single readings can be large or run the other way;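 note: the protocol describes HADH2 (HSD17B10) and not the HSD17B4 of the title; nearly all actives have a fitted effect of over 70% in size; most hits overshoot -100% by far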
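Enzyme plus compound, 15 min room temperature; substrate mix added (NAD+ 1 mM, beta-hydroxybutyryl-CoA 90 uM final); plates read kinetically for NADH fluorescence. HADH2 was His-tagged, E. coli-derived, 20 nM.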
* hit, by the source's call; ? = inconclusive; & = joins results of further samples; [ ] = dose if it differs, or a comment. % is set by controls: 0 for no effect and ±100 for the full control effect; potency is the fitted concentration of half-maximal effect. These rows are one share of the data, so the mix of outcomes need not match the whole.

SMILES | HSD17B inh
CCOc1cc2[nH]c(=O)n(CC3CCC(C(=O)NC4CCCCC4)CC3)c(=O)c2cc1OCC (stereo not drawn) | -10%
CC(CC1C(C#N)=C(N)OC2=C1C(=O)CCC2)c1ccccc1 (stereo not drawn) | 5%
CCCCNC(=O)c1ccc2c(c1)N(CC)C(=O)CS2 | 1%
CCOc1ccc(C(=O)N2CCCC2C(=O)O)cc1 (stereo not drawn) | 4%
Cc1ccc2c(c1)nnn2C1CCN(S(C)(=O)=O)CC1 | 7%
COCCCN1Cc2cccc(C(=O)O)c2C1=O | 8%
CC1CCN(S(=O)(=O)c2ccc(NC(=O)CSc3ncccc3C(=O)O)cc2)CC1 | -8%
COc1ccccc1CN1CCC2(CC1)CCN(C(=O)c1cc(C(F)(F)F)cc(C(F)(F)F)c1)CC2 | -3%
CN[C@@H]1[C@H](O[C@H]2[C@@H](O[C@@H]3[C@@H](O)[C@@H](O)[C@@H](N=C(N)N)[C@@H](O)[C@@H]3N=C(N)N)O[C@@H](C)[C@]2(O)CO)O[C@H](CO)[C@@H](O)[C@@H]1O | 2%[25.6 µM]
CCS(=O)(=O)N1CCC(C(=O)NCCCOC)CC1 | 14%
CCCCOc1ccc(CSc2ncn[nH]2)cc1 | -6%
O=c1c2ccccc2nc2n1CCCCC2 | 6%
COc1ccc(CCNc2nc(N3CCOCC3)nc(N3CCOCC3)n2)cc1OC | 17%
CCOC(=O)c1ccccc1NC(=O)CSc1nnc(Cc2cccn2C)n1-c1ccc(C)cc1 | -19%
CCOC(=O)Cn1cc(C(=O)OC)c2ccccc21 | -3%
Cc1ccc(N(CC(=O)N2CCN(c3ccc(F)cc3)CC2)S(=O)(=O)c2c(C)nn(C)c2C)cc1 | -7%
Cc1ccc2oc(=O)n(CCCOc3ccccc3)c2c1 | -15%
CO[C@H]1COC(=O)[C@@H](C)COC(=O)[C@@H](OCc2ccccc2)/C=C\[C@@H]1C | 11%[11.4 µM]
CN(CC(=O)NCC1CCCO1)S(=O)(=O)c1cc(Cl)ccc1Cl (stereo not drawn) | 8%
O=C(NCc1ccco1)c1ccc2c(=O)n(CC3CCCO3)c(=S)[nH]c2c1 (stereo not drawn) | -3%
Cc1nc2ccccc2c(=O)n1NC(=O)Nc1ccccc1 | -12%
CCOc1cc(C)c(Cl)cc1S(=O)(=O)N(CC)CC | 8%
COc1ccc(C(=O)CN2C3=NCCCN3c3ccccc32)cc1OC | 0%
O=C(CN1CCN(C(=O)c2cccs2)CC1)NC1CCCCC1 | 12%
CCCCC(=O)Nc1cccc2c1C(=O)N(c1ccccc1)C2=O | ?
CC(N=c1ccccn1C(=O)Nc1ccc(Cl)cc1)c1ccco1 (stereo not drawn) | 14%
CC(C)[C@H](NC(=O)OCc1ccccc1)C(=O)N[C@H](C=O)Cc1ccccc1 | -28%
CS(=O)(=O)N1CCCC(C(=O)N2CCOCC2)C1 (stereo not drawn) | 0%
Cc1ccc(CC2CC(=O)N(CCc3ccc4c(c3)OCO4)C2=O)cc1 (stereo not drawn) | -2%
Cc1ccccc1CSc1nnc(C)n1N | -5%
N#CCCN1CCN(S(=O)(=O)c2ccc(S(=O)(=O)N3CCOCC3)cc2)CC1 | 3%
CCN1CCN(Cc2ccc(NC(=O)Nc3ccc(SC)cc3)cc2)CC1 | 7%
COC(=O)c1ccc(CSc2nc3c(c(=O)n2-c2ccc(F)cc2)SCC3)o1 | 0%
Cc1cn2c(nc1=O)OC1C(O)C(COC(=O)c3ccccc3)OC12 (stereo not drawn) | 4%
NC(=O)c1ccccc1NS(=O)(=O)c1cccs1 | -7%
N#Cc1cccc(-c2cncnc2NCc2cccs2)c1 | 3%
COCCCN1C(=O)C(=O)/C(=C(/O)c2ccc(OC(C)C)cc2)C1c1cccnc1 (stereo not drawn) | -7%
C=CCOc1ccc(Cl)cc1C(=O)O | -9%
C=CCn1c(CC(=O)OC)csc1=Nc1ccc(C(C)=O)cc1 | -10%
COc1ccc(N(CC(=O)Nc2cccc(SC)c2)S(C)(=O)=O)cc1Cl | -1%
Cn1cccc1C(=O)N1CCC2(CC1)CN(Cc1ccc(C#N)cc1)C2 | 3%
N=c1c2c3c(sc2nc2n1CCCCC2)CCCCC3 | -5%
CCCn1nnc(NC(=O)COc2ccc(C3CCCCC3)cc2)n1 | -9%
N#CC1=C(N)OC2=C(C(=O)CCC2)C1C1CC=CCC1 (stereo not drawn) | -5%
COc1ccc(S(=O)(=O)Nc2cc(C)cc(C)n2)c2ccccc12 | -1%
COC(=O)c1ccc(CN2C(=O)NC3(CCCc4ccccc43)C2=O)o1 (stereo not drawn) | 1%
N#C/C(C(=O)NCc1ccco1)=C1/SC=C(c2ccccc2)N1c1ccccc1 | 32µM*
Nc1ncnc2c1ncn2C1OC(CO)C(O)C1O (stereo not drawn) | 4%&2%
O=C(Cc1ccccc1)NCCc1cn2ccsc2n1 | -5%
CCC(=O)Nc1cc(C)c(NC(=O)c2ccco2)cn1 | 3%
Remaining list, next part:
SMILES | HSD17B inh
O=C(Nc1nncs1)C1c2ccccc2Oc2ccccc21 | -2%
O=c1cc(N2CCc3ccccc32)[nH]c(=O)n1Cc1ccc(F)cc1 | 99%[activator]
COc1ccc(CCNC(=O)CCC(=O)N2CCN(S(=O)(=O)c3ccccc3)CC2)cc1OC | 2%
Cc1ccc(C(C)C)c(OCCCN2CC(C)OC(C)C2)c1 (stereo not drawn) | 4%
C=CCc1cccc(C2Nc3ccccc3C(=O)N2O)c1O (stereo not drawn) | -5%
CCOC(=O)c1c(NC(=O)CN2CCCCC2)sc2c1CCCC2O (stereo not drawn) | -10%
O=S(=O)(c1cccc(Cl)c1)N1CCCC1 | 4%
COc1ccc(OCCNS(=O)(=O)c2ccccc2)cc1 | 2%
CCCCc1ccc(NS(=O)(=O)N(C)C)cc1 | 4%
O=C1CN(C(=O)COC(=O)c2ccccc2NC(=O)c2ccco2)c2ccccc2N1 | -6%
C[C@@H]1C=C[C@](Cc2ccccc2)(C(=O)NCCc2c[nH]c3ccccc23)N1C(=O)c1ccccc1 | -11%
Cc1cccc(NC(=O)C2C(C(=O)O)C3C=CC2C32CC2)c1C (stereo not drawn) | -3%
NC(=O)/C(=C\c1ccncc1)c1cccc2ccccc12 | -6%[11.4 µM]
COC(=O)Nc1nc2ccc(SC(C)C)cc2[nH]1 | 11%[25.6 µM]
c1ccc2nc3c(nc2c1)sc1nc2ccccc2n13 | 1%
CCOC(=O)c1cn(CC(=O)Nc2ccc(C(C)C)cc2)nn1 | -1%
S=C(c1ccc(N2CCCC2)cc1)N1CCCCC1 | -8%
O=C(c1ccccc1)C1CCc2occc2C1=O (stereo not drawn) | -2%
Cc1ccc(C(O)c2cccnc2)o1 (stereo not drawn) | 0%
COc1ccccc1NC(=O)CSc1nnc(-c2ccco2)n1Cc1ccco1 | -6%
CCOC(=O)C1=C(c2ccccc2)Nc2ncnn2C1c1cc(OC)ccc1OC (stereo not drawn) | -1%
CCn1c(NC(=O)c2ccco2)c(-c2ccccc2Cl)c(=O)c2ccccc21 | 0%
CCN(CC(=O)O)C(=O)c1cccnc1 | 6%[11.4 µM]
O=c1cc(CSc2nnc(COc3ccccc3)o2)c2ccccc2[nH]1 | -14%
NC(=O)C1CCN(C(=O)CN2CCCc3ccccc32)CC1 | -9%
Cc1ccccc1C(=O)O | 2%
Cc1ccc(C)c(N=C2NC(=O)CS2)c1 | 6%
Cc1onc(-c2ccccc2)c1C(=O)Oc1cccnc1 | 4%
O=C(NCc1ccco1)c1cc2ccccc2o1 | ?
CC(=O)c1cnc2nc(C(F)(F)F)nn2c1C | 10%

Ordered by molar mass (rising): part of the list above
SMILES | HSD17B inh
CCCCc1ccc(NS(=O)(=O)N(C)C)cc1 | 4%
CS(=O)(=O)N1CCCC(C(=O)N2CCOCC2)C1 (stereo not drawn) | 0%
Cn1cccc1C(=O)N1CCC2(CC1)CN(Cc1ccc(C#N)cc1)C2 | 3%

(more compounds)
SMILES | HSD17B inh
COCCNC(=O)CN1C(=O)CSc2ncccc21 | 6%
Cc1cc(C)n2nc(C(=O)NCc3ccco3)nc2n1 | 8%
O=C(NCC1CCCO1)C1CCCN(S(=O)(=O)c2cccc3nsnc23)C1 (stereo not drawn) | -11%
CC(C)(C)c1cc(CCC(=O)N2CCNCC2)c(C(C)(C)C)cc1O | -4%
COC(=O)c1ccc(CSc2ccc3nnc(-c4ccc(OC)c(OC)c4)n3n2)o1 | ?
COc1cc(/C=c2\sc3nc(-c4ccncc4)nn3c2=O)ccc1OC(C)=O | ?
O=C1Nc2ccccc2C(O)(C(=O)N2CCCCC2)N1c1ccccc1 (stereo not drawn) | -3%
O=C1C=C(NCc2ccccc2)C2(CCCCC2)O1 | 2%
COc1ccc(-n2c(=O)c(-c3ccc(F)cc3)nc3cnc(OC)nc32)cc1 | -17%
CC(=O)N(Cc1ccco1)C1(C(=O)NC2CCCCC2)CCCCC1 | 6%

No new results follow: 15 of the compounds above.
SMILES | HSD17B inh
Cc1ccccc1C(=O)O | 2%
Cc1ccc(C)c(N=C2NC(=O)CS2)c1 | 6%
Cc1onc(-c2ccccc2)c1C(=O)Oc1cccnc1 | 4%
O=C(NCc1ccco1)c1cc2ccccc2o1 | ?
CC(=O)c1cnc2nc(C(F)(F)F)nn2c1C | 10%
COCCNC(=O)CN1C(=O)CSc2ncccc21 | 6%
Cc1cc(C)n2nc(C(=O)NCc3ccco3)nc2n1 | 8%
O=C(NCC1CCCO1)C1CCCN(S(=O)(=O)c2cccc3nsnc23)C1 (stereo not drawn) | -11%
CC(C)(C)c1cc(CCC(=O)N2CCNCC2)c(C(C)(C)C)cc1O | -4%
COC(=O)c1ccc(CSc2ccc3nnc(-c4ccc(OC)c(OC)c4)n3n2)o1 | ?
COc1cc(/C=c2\sc3nc(-c4ccncc4)nn3c2=O)ccc1OC(C)=O | ?
O=C1Nc2ccccc2C(O)(C(=O)N2CCCCC2)N1c1ccccc1 (stereo not drawn) | -3%
O=C1C=C(NCc2ccccc2)C2(CCCCC2)O1 | 2%
COc1ccc(-n2c(=O)c(-c3ccc(F)cc3)nc3cnc(OC)nc32)cc1 | -17%
CC(=O)N(Cc1ccco1)C1(C(=O)NC2CCCCC2)CCCCC1 | 6%

The list continues:
SMILES | HSD17B inh
O=c1cnc2cnc(Nc3ccccc3)nc2n1Cc1cccs1 | 4%
Cc1cc(C)n(C(=O)c2ccncc2)n1 | 4%
Cc1c(NC(=O)c2cc(-c3cccs3)on2)c(=O)n(-c2ccccc2)n1C | -22%
CCC1=C(OC(=O)N(CC)CC)N2C(=O)OC(=NCc3ccccc3)[C@]2(C)[C@H]2C1=CC[C@H]1C(=O)NC(=O)[C@H]12 | 21%
CC(Sc1nnc(C2CCCCC2)n1N)C(=O)NCc1ccc2c(c1)OCO2 (stereo not drawn) | 3%
COc1cc(NS(=O)(=O)c2cccc3nsnc23)c(C(=O)O)cc1OC | -4%
C#CCCCO/N=C1/C[C@@H](O)[C@@H](O)[C@@H]2[C@@H]3C(=O)N(CCC(=O)OCC)C(=O)[C@H]3CC[C@H]12 | 11%[11.4 µM]
O=C1Nc2ccccc2OC1CC(=O)N1CCCC1 (stereo not drawn) | -4%
CCCC(=O)c1cc2ccccc2oc1=O | -9%
COC(=O)CSc1nnc(-c2ccoc2C)n1-c1ccc(OC)cc1 | 1%
C[C@@H](C(=O)Nc1ccc2ccccc2c1)[C@H]1C[C@]1(C)[C@H](NC(=O)c1cnccn1)c1ccccc1 | 14%
Cn1ncc(N)c1C(=O)Nc1cccc(C(F)(F)F)c1 | -4%
Cc1noc(C)c1C(=O)N1CCN(Cc2ccc3c(c2)OCO3)CC1 | -8%
COc1ccc(C2c3c(oc4ccccc4c3=O)C(=O)N2c2ccccn2)cc1OC (stereo not drawn) | 4%
O=C(CCN1C(=O)C2CC=C(Cl)CC2C1=O)Nc1ccccc1O (stereo not drawn) | 6%
CN1C(=O)C(O)(c2sc(N)nc2-c2ccccc2)c2ccccc21 (stereo not drawn) | 8%
Cn1c(C(=O)N2CCCC(C(=O)NCc3ccc4c(c3)OCO4)C2)cc2sccc21 (stereo not drawn) | 0%
COc1ccc(-c2nnc(SCc3ncc(-c4ccccc4)o3)o2)cc1 | -20%
CN1CCN(c2ccccc2NC(=O)c2ccc(-c3ccccc3)cc2)CC1 | 13%
FC(F)(F)c1cc(-c2ccco2)nc(-n2nnc3ccccc32)n1 | ?
Cc1ccc(Nc2cc(C)nc3nnnn23)cc1 | ?
O=C(Cn1cnc2c(nnn2-c2cccc(Cl)c2)c1=O)N1CCCC1 | 5%
NC(=O)C1(N2CCCCC2)CCN(CC(=O)Nc2ccc(Oc3ccccc3)cc2)CC1 | -3%
CC(=O)NC1CC2CCCC(C1)N2S(=O)(=O)c1cccc(F)c1 (stereo not drawn) | -9%
COc1ccc(CCNC(=O)c2c(O)c3c([nH]c2=O)CCCC3)cc1OC | -4%
CCCC(=O)Nc1ccc(Cl)c(NC(=O)CC)c1 | 7%
CC(=O)NC(CC(=O)NCC(c1ccco1)N(C)C)c1ccccc1 (stereo not drawn) | 5%
O=C(c1ccc2c(c1)OCO2)N(CC1CCCO1)C1(C(=O)NC2CCCC2)CCCCC1 (stereo not drawn) | 3%
Cc1cccc2cc(COC(=O)COc3ccccc3)c(=O)[nH]c12 | ?
Cc1ccc(-c2[nH]nc3c2C(c2cccnc2)C(C#N)=C(N)O3)cc1 (stereo not drawn) | -5%
CCCN1C(=O)c2cc(C(=O)NCc3ccc(OC)cc3)ccc2C1O (stereo not drawn) | 8%
COC(=O)c1ccc(NC(=O)CCNS(=O)(=O)c2cccc3nonc23)cc1 | -12%
CC(=O)Nc1cccc(N(C)C)c1 | -5%
c1ccc2c(c1)nc(NCCN1CCOCC1)c1nncn12 | -7%
COc1ccccc1N1CCN(C(=O)C2CCCO2)CC1 (stereo not drawn) | 7%
O=C(CCCNS(=O)(=O)c1ccccc1)NCc1ccco1 | 8%

Bioassay records (PubChem)
